From PubChem BioAssay
CDC25B CDK2 inh: human CDC25B-CDK2/CyclinA binding inhibition | P30305+P24941 | HTRF CDC25B-CDK2/CyclinA binding, anti-His/anti-Flag; hits give high values | z-score (test concentration not listed) | actives 0.72% (n = 94,000);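 note: score is relative to mean and SD of negative controls; strong numbers were not always called active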
HIV TAR-Tat: HIV-1 TAR-Tat binding disruption; actives 0.6% (n = 100,000); AID 1259389; HIV-1 TAR RNA, Tat peptide displacement FRET; hits give high values; z-score (no concentration beside the values);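 note: score is relative to mean and SD of negative controls; some compounds called inactive have numbers as strong as hits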
* = called active by the depositor; · = not tested or not shown.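 Rule for the calls: active = z-score from 3 up in half or more of its runs; inactive = the rest.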 Compounds as they come (roughly 0.87% active in at least one column).

SMILES	CDC25B CDK2 inh	HIV TAR-Tat
CCSCCOC(=O)C1=C(C)NC2=C(C(=O)CC(c3cccs3)C2)C1c1cccc(O)c1 (stereo not drawn)	-0.62	0.88
COc1ccc(CCNc2ncnc3c2sc2nc4c(cc23)COC(C)(C)C4)cc1OC	·	1.05
CCSCCOC(=O)C1=C(C)NC2(O)c3ccccc3C(=O)C12O (stereo not drawn)	-0.79	·
Cn1ncc2c(NCc3ccncc3)ncnc21	·	0.27
O=C1C2C3C=CC(C3)C2C(=O)N1c1ccc(N2C(=O)C3C4CCC(C4)C3C2=O)cc1 (stereo not drawn)	0.64	·
O=C1C(=O)N(CCCN2CCOCC2)C(c2ccc(F)cc2)/C1=C(\O)c1ccccc1 (stereo not drawn)	-1.73	0.8
COc1ccc(Cc2nc3c4cnn(-c5ccc(Cl)cc5)c4ncn3n2)cc1OC	-2.99	1.29
CC1(C)C(=O)Nc2ccc(S(=O)(=O)NCc3cccs3)cc21	·	-1.89
COc1ccc2c(c1)CCc1c-2n[nH]c1C(=O)N1CCOCC1	·	0.22
CN(CCC#N)c1ccc(/C=N/NC(=O)C2CCN(C(=S)NC3CC4C=CC3C4)CC2)cc1 (stereo not drawn)	-2.22	·
CC1CN(S(=O)(=O)c2ccc(Cl)cc2)CCN1S(=O)(=O)c1ccc(Cl)cc1 (stereo not drawn)	-0.4	-0.05
O=S(=O)(c1ccc(Cl)cc1)N1CCN(C2CCC(c3ccccc3)CC2)CC1 (stereo not drawn)	-0.97	-0.43
CCc1c(C)sc2c1CCN(Cc1cc(=O)n3ccccc3n1)C2c1ccccc1 (stereo not drawn)	·	0.1
CCc1cc2c(N3CCC(C(=O)NCc4ccc(C)o4)CC3)ncnc2s1	·	0.87
CC(C)CCNC(=O)Cn1cnc2c1c(=O)n(C)c(=O)n2C	-1.87	1.91
COc1ccc(OCC(O)Cn2c(N3CCOCC3)nc3c2c(=O)[nH]c(=O)n3C)cc1 (stereo not drawn)	-1.75	·
CC(NS(=O)(=O)c1ccccc1)C(c1cccs1)N1CCN(c2ccccc2F)CC1 (stereo not drawn)	-1.87	·
COc1ccc(/C=C/c2nc(C#N)c(N3CCCCC3)o2)cc1OC	0.01	1.7
Cc1ccc2oc(=O)c3cnn(CC(=O)NCc4ccc(C)o4)c3c2c1	-2.24	·
Cc1cc(=O)[nH]c(SCc2cc(=O)c3cc(Cl)ccc3[nH]2)n1	·	-1.31
CC(=O)O[C@]1(C(C)=O)CCC2C3C[C@H](C)C4=CC(=O)CC[C@]4(C)C3CC[C@@]21C (stereo partly drawn)	·	2.09
CN(c1ccccc1)C(CNS(=O)(=O)c1ccccc1)c1ccccc1 (stereo not drawn)	-1.66	2.87
Cc1cc(NC(=O)Cc2c(C(=O)O)[nH]c3ccc(Cl)cc23)no1	-1.75	·
COC(=O)c1nc2n(n1)C(c1ccccc1)C1=C(CC(C)(C)CC1=O)N2 (stereo not drawn)	-0.78	·
CCn1nccc1C1CCCN1C(=O)Nc1ccc2c(c1)OCO2 (stereo not drawn)	-1.56	0.38
COc1cc(C2C(C#N)=C(N)Oc3n[nH]c(-c4ccc5c(c4)OCO5)c32)ccc1O (stereo not drawn)	-5.91	·
CCC(C)N(CCNC(=O)c1nn(C)c2c1CSc1ccccc1-2)Cc1ccco1 (stereo not drawn)	6.15	0.95
CCN(CC)CCNc1ncnc2onc(-c3ccc(Cl)cc3)c12	-1.01	1.29
CC12CCOC1(C)N(Cc1ccccc1)c1ccccc12 (stereo not drawn)	-3.15	·
Cc1ccc(C(C)C)c(OCCNc2nc3c(c(=O)n(C)c(=O)n3C)n2C)c1	-4.36	·
O=C(Cc1nc(O)cs1)c1ccccc1	-1.08	·
O=C(Nc1ccc2c(c1)OCCO2)N1CCC2(CC1)Nc1cc(F)ccc1-n1cccc12	·	-0.04
O=C1Cc2cc(S(=O)(=O)NC(c3ccccc3)c3ccccc3)cc3c2N1CCC3	·	0.56
COCCN1C(=O)c2ccccc2C(C(=O)N2CCc3ccccc32)C1c1cccs1 (stereo not drawn)	·	1.5
CN(CC(=O)NC1CCCCC1)S(=O)(=O)c1ccc(C(=O)N2CCOCC2)s1	·	1.69
CC1CCCC(NC(=O)c2cc3sccc3n2C)C1C (stereo not drawn)	-0.24	·
O=C(CN1C(=O)CCCc2ccccc21)NC1CC1	·	0.91
CCOC(=O)NC(=O)/C(C#N)=C/c1ccc(N(C)C)cc1	-1.79	·
Cc1sc(-n2c(C)c3c(C)nnc(C)c3c2C)nc1-c1cccs1	-0.79	2.88
Cn1cnc(S(=O)(=O)N2CCN(C(=O)c3ccco3)CC2)c1	·	2.94
O=c1cc(O)c2sc3nc(-c4ccncc4)ccc3c2[nH]1	2.5	15.2*
Cc1ccc(Nc2ncnc3c2cnn3-c2ccc(F)cc2)cc1Cl	·	0.86
CCCCN(CC)CCNC(=O)C1CCN(c2ncnc3onc(C)c23)CC1	·	-0.09
Cc1c(CCNS(=O)(=O)c2ccc(F)cc2)sc2nc(-c3ccc(F)cc3)nn12	·	0.63
Cc1ccc(CNS(=O)(=O)c2ccc(-c3cnc(C)o3)cc2)cc1	·	1.19
CCOC(=O)c1cc(S(=O)(=O)N(C)CC(=O)N2CCCCC2C)cn1C (stereo not drawn)	·	-0.83
CCN(CC)S(=O)(=O)c1ccc2c(c1)N(CC(=O)N1CCCC1)C(=O)CO2	-0.95	-1.34
CCOC(=O)c1c(NC(=O)CC)sc(C(=O)N2CCCCC2)c1C	-0.41	·
O=C(c1csc(S(=O)(=O)N2CCC(N3CCCCC3)CC2)c1)N1CCOCC1	·	0.66
COc1ccc2c(c1)c(=O)oc1c(C)c(OCc3cc(C(=O)O)oc3C)ccc12	0.46	-0.25
(cont.)
SMILES	CDC25B CDK2 inh	HIV TAR-Tat
CCOCCCNC(=O)Cn1c2ccccc2c2nc(=O)cc(C)n21	0.12	-0.46
Cc1nnc(N2C(=O)c3oc4ccccc4c(=O)c3C2c2ccc(O)cc2)s1 (stereo not drawn)	-0.36	0.6
N#CC1=C2N=C(N)c3ccccc3N2C2=C(C(=O)CCC2)C1c1cccnc1 (stereo not drawn)	-1.74	1.7
COc1ccc(N2C(=O)C3N=NN(Cc4ccc(F)cc4)C3C2=O)cc1OC (stereo not drawn)	-0.47	2.35
Cc1nnc(NC(=O)c2snnc2C)s1	0.01	-0.41
CC1CCN(S(=O)(=O)c2ccc3nc(Nc4ccccc4)ccc3c2)CC1	·	0.81
CC1(C)CC(=O)C2=C(C1)Nc1cc(C(=O)c3ccccc3)ccc1NC2c1ccco1 (stereo not drawn)	-1.5	-3.87
O=C(NCc1nnnn1-c1ccccc1)Nc1ccccc1	·	0.96
N#CCC(=O)c1ccsc1	-0.78	·
O=S(=O)(Nc1cccc(-c2ccc(N3CCCC3)nn2)c1)c1cccc(Cl)c1	·	1.32
CNC(=O)CN1c2ccccc2NC2=C(C(=O)CCC2)C1c1cccs1 (stereo not drawn)	·	2.15
Cc1ccc(NC(=O)Nc2ccc3c(c2)N(C)C(=O)CS3)nc1	4.16	1.43
C=CCn1c(CSc2nc3ccccc3s2)nnc1SCC(=O)NCc1ccco1	-2.62	·
COc1ccc(OCCOc2ccc(Cl)c(C)c2)c(C2SC(NC(C)=O)=NN2C(C)=O)c1 (stereo not drawn)	-1.86	1.48
O=C(CCc1nnc2ccc(NCc3ccco3)nn12)Nc1cc(F)ccc1F	·	2.54
CCCCN(CC)S(=O)(=O)c1ccc(-c2ccc(=O)[nH]n2)s1	·	1.47
CCCCCCC(=O)NNC(=O)CC(=O)Nc1ccccc1C(=O)O	-1.32	·
CCN(CC)c1nn2nnnc2c2ccccc12	·	0.33
Cn1ccc2cc(S(=O)(=O)N3CCN(C(=O)Nc4ccccc4)CC3)ccc21	-1.2	2.07
CCc1cc(C(=O)Cn2cnc3ccccc32)c(O)cc1O	-0.74	·
Fc1cccc(NC(c2nnc(-c3ccccc3)o2)c2ccccc2F)c1 (stereo not drawn)	-1.29	1.72
CC1(C)CC(=O)c2cc3c(N)c(C(=O)c4ccc(F)cc4)sc3nc2C1	-1.16	0.65
O=C(COCc1cc(-c2cccs2)on1)N1CCc2ccccc21	·	0.84
Cc1nc2c3cccnc3nn2c(C)c1CCC(=O)NCc1ccco1	-0.72	-0.77
CC1(C)Cc2nc3sc4c(N(CCO)Cc5ccccc5)ncnc4c3cc2CO1	·	1.41
CCc1ccccc1NS(=O)(=O)c1cc(-c2cnc(C)o2)ccc1C	·	0.66
Cc1ccc(C)c(CN2N=NC3C(=O)N(c4cccc(Cl)c4)C(=O)C32)c1 (stereo not drawn)	-0.29	1.22
COC(=O)c1cc(S(=O)(=O)Nc2cccc(SC)c2)c[nH]1	·	3.47
O=C1C2C3c4ccccc4C(C(=O)O)(c4ccccc43)C2C(=O)N1Cc1ccccc1 (stereo not drawn)	0.14	-0.26
COc1cc(OC)c2c(c1)C1C=CCC1C(c1ccc(Br)cc1)N2 (stereo not drawn)	0.32	1.61
COc1ccc(C(=O)NC(=S)Nc2ccc(O)c(-c3nc4cc(C)c(C)cc4o3)c2)cc1OC	-3.52	·
Cc1oc(-c2ccccc2Cl)nc1CSc1nncn2c1cc1occc12	·	-9.89
O=C1c2cnccc2CN1c1ccccc1F	·	1.1
CC(=O)N1CCc2cc(Br)cc(S(=O)(=O)CCC(=O)N3CC(C)CC(C)C3)c21 (stereo not drawn)	0.45	·
O=C(Nc1sc2c(c1C(=O)NCc1ccco1)CCC2)c1cc(-c2ccc3c(c2)OCCO3)on1	-1.67	2.39
Cc1ccccc1CSC1=NN2CCCC(=O)N=C2S1	-1.26	·
CC1(C(=O)NC2CCCC2)Cn2c(cc3sccc32)C(=O)N1Cc1cccs1 (stereo not drawn)	-2.02	1.05
O=c1[nH]c2ccc(S(=O)(=O)N3CCCCC3)cc2o1	-1.7	1.26
Cc1nn(S(=O)(=O)c2ccc3ccccc3c2)c(C)c1S(=O)(=O)N1CCCC(C)C1 (stereo not drawn)	·	0.03
NC(=NCc1ccccc1)c1ccc(Cl)cc1	-1.73	·
COc1ccc(-c2noc(-c3nnn(-c4ccc(C)c(C)c4)c3C)n2)cc1OC	·	0.07
Cc1cccc(Cn2cnc3c(nnn3Cc3ccccc3F)c2=O)c1	-1.06	·
Cn1c2c(c(=O)n(C)c1=O)CN(CC1CCN(CCc3cccs3)CC1)CN2	-1.19	0.14
Cc1noc(/C=C/c2cccs2)c1S(=O)(=O)N1CCCC(C(=O)N2CCOCC2)C1 (stereo not drawn)	-2.47	0.82
O=C(CCCc1nnc2c(=O)n(-c3cccc(F)c3)ccn12)N1CCN(c2ccc(F)cc2)CC1	·	2.06
Cc1cc(C)n2ncc(C(=O)N3CCOCC3)c2n1	·	0.28
Cc1ccc(C2CC(c3cccc(C)c3)n3nnnc3N2)cc1 (stereo not drawn)	·	1.99
CCOC(=O)N1CCN(C(=O)COc2cc(=O)n(CC)c3ccccc23)CC1	-1.37	0.32
Cc1ccc(-n2nc(C)c3c(C(F)(F)F)cc(=O)n(Cc4cc(=O)n5ccccc5n4)c32)cc1	·	1.26
CSC1=NC(C)(C)CC12C=CC(=O)c1ccccc12 (stereo not drawn)	-1.99	·
Carrying on.
SMILES	CDC25B CDK2 inh	HIV TAR-Tat
OC(COc1ccc(C2CCCCC2)cc1)CN1CCCCC1 (stereo not drawn)	0.19	·
Cc1ccc(S(=O)(=O)c2nnn(-c3ccc(C)c(C)c3)c2C)cc1	-1.05	0.76
O=C(Cn1nc2c(cc1=O)CCCC2)Nc1ccc(Cl)cc1	·	1.33
O=[N+]([O-])c1ccc(CSc2nnc(-c3ccncc3)o2)cc1	-2.78	·
CCOC(=O)c1c(C)oc2nc(C)nc(NC3CC3)c12	·	1.32
CCCCn1c(C)c(C)c2c1ncn1nc(-c3ccc(OC)c(OC)c3)nc21	-0.75	0.96
CC(Nc1nc2ccccc2n1C)c1cc(Cl)ccc1O (stereo not drawn)	-1.26	1.25
CCN1CCN(C(=O)c2cc3c(=O)n(Cc4ccco4)ccc3nc2C)CC1	·	-0.31
COc1ccc(OC)c(C2=NOC(C(=O)NCCCn3ccnc3)C2)c1 (stereo not drawn)	0.67	1.05

A draw from above in order of heavy-atom count, rising:
SMILES	CDC25B CDK2 inh	HIV TAR-Tat
NC(=NCc1ccccc1)c1ccc(Cl)cc1	-1.73	·
Cc1cc(C)n2ncc(C(=O)N3CCOCC3)c2n1	·	0.28
CCOC(=O)c1c(C)oc2nc(C)nc(NC3CC3)c12	·	1.32
CC(Nc1nc2ccccc2n1C)c1cc(Cl)ccc1O (stereo not drawn)	-1.26	1.25
O=[N+]([O-])c1ccc(CSc2nnc(-c3ccncc3)o2)cc1	-2.78	·
OC(COc1ccc(C2CCCCC2)cc1)CN1CCCCC1 (stereo not drawn)	0.19	·
Cc1ccc(S(=O)(=O)c2nnn(-c3ccc(C)c(C)c3)c2C)cc1	-1.05	0.76
Cc1cccc(Cn2cnc3c(nnn3Cc3ccccc3F)c2=O)c1	-1.06	·
CCOC(=O)N1CCN(C(=O)COc2cc(=O)n(CC)c3ccccc23)CC1	-1.37	0.32
COc1ccc(-c2noc(-c3nnn(-c4ccc(C)c(C)c4)c3C)n2)cc1OC	·	0.07
Cc1noc(/C=C/c2cccs2)c1S(=O)(=O)N1CCCC(C(=O)N2CCOCC2)C1 (stereo not drawn)	-2.47	0.82
Cc1ccc(-n2nc(C)c3c(C(F)(F)F)cc(=O)n(Cc4cc(=O)n5ccccc5n4)c32)cc1	·	1.26
O=C(CCCc1nnc2c(=O)n(-c3cccc(F)c3)ccn12)N1CCN(c2ccc(F)cc2)CC1	·	2.06
